Screening data from PubChem BioAssay.
ClpP mod – qHTS Assay for Activators of ClpP. ATP-dependent Clp protease proteolytic subunit (Bacillus subtilis (strain 168)), P80244. purified B. subtilis ClpP, FRET peptide cleavage, 20 min. Potency, µM (series often up to 57.5 µM), for the others: at the highest dose activity change, negative = active. 340,000 tested, 1.9% active. AID 651965, 2013; active = well fitted falling curve with a large enough effect; inconclusive = small, poorly fitted or top-dose-only effect; inactive = no such curve, though single readings can be large or run the other way; also: potency is read from the fitted curve at half-maximal effect; the source files actives as falling curves though it sought activators and does not explain the sign; nearly all actives have a fitted effect of over 65% in size; many hits overshoot -100%
Target sequence (P80244 whole entry, looked up): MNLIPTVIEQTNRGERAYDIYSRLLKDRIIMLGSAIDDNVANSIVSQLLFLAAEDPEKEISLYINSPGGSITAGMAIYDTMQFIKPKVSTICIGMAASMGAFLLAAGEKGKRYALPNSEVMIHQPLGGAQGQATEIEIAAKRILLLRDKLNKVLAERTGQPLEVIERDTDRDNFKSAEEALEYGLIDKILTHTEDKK
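Buffer: 100 mM Tris/HCl pH8, 100 mM KCl, 0.05% low protease BSA, 2.5% glycerol, 0.01% Tween-20. ClpP 10 microg/mL final; 20 min RT; delta FRET normalized to ADEP and DMSO controls.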
Menin MLL FP FL – qHTS Assay for Inhibitors Targeting the Menin-MLL Interaction in MLL Related Leukemias: Competition With Fluorescein Labeled MLL-derived Peptide; Fluorescence polarization, fluorescein-MLL peptide displacement from menin; FP activity change, % at 61.4 µM; 290,000 tested, under 10 active; AID 1766, 2009; inconclusive = falling polarisation curve, or a change in total fluorescence; inactive = total fluorescence flat and polarisation flat or rising; no compound was filed as active; the % refers to the polarisation; negative = inhibition;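 also: % of control where 0% means no effect; inhibitors lower the polarisation; unlabelled MLL peptide was the positive control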
TRPV1 potentiator – HTS Assay for Compounds that Act as Potentiators of the Vanilloid Receptor 1; Transient receptor potential cation channel subfamily V member 1 (Homo sapiens), Q8NER1; TRPV1-expressing cells, Fluo-8 calcium influx, capsaicin EC20 potentiation; host cell line not named in the record; control for the full effect not named in the record; potentiation, % at 8.33 µM; 320,000 tested, 0.02% active; AID 540277, 2011; active means potentiation above 80%; inconclusive means 30% to 80%; inactive means below 30%; also: 0% is about no effect
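TRPV1-expressing cells were cultured overnight at 35.5C and loaded with Fluo-8 calcium dye for 40 to 90 min at room temperature. After a 10 s baseline, compound was added and calcium influx was read kinetically for 3 min (ex 480/em 520 nm).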
gsp ag – qHTS for Agonist of gsp, the Etiologic Mutation Responsible for Fibrous Dysplasia/McCune-Albright Syndrome: qHTS; gsp mutant cells, cAMP HTRF, 30 min; control for the full effect not named in the record; Potency, µM (titrated, usually from 76.9 µM), without a hit: top-dose activation (cAMP increase), usual class: activators; 340,000 tested, 0.13% active; AID 624287, 2012; active = well fitted activation curve with a large enough effect; inconclusive = small, poorly fitted or top-dose-only effect, or another doubt; inactive = no such curve, though single readings can be large or run the other way; cell line not stated here;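 also: phosphodiesterase inhibitor Ro 20-1724 added with compounds to block cAMP breakdown; potency is read from the fitted curve at half-maximal effect; nearly all actives have a fitted effect of over 60% in size; about a fifth of the inactives were tested at one dose only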
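Cells in DMEM/10% FBS with G418 were pretreated with compounds in DMSO plus […] (300 uM stock) for 30 min at 37C. cAMP was measured by HTRF (cAMP-d2 plus anti-cAMP antibody-K) after 30 min at room temperature.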
D2 potentiator – Beta-Arrestin HTS for Positive Allosteric Modulators of the Human D2 Dopamine Receptor: Potentiators | DiscoveRx D2 beta-arrestin cells, luminescence, 90 min; 100% = 57 uM dopamine signal | potentiation, % (no concentration beside the values) | 360,000 tested, 0.23% active | D(2) dopamine receptor (Homo sapiens), P14416; active = potentiation of 50% or more; inconclusive = 30% to 50%; inactive = 30% or less;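 also: compound concentration not given in the record; tested on top of an EC20 dose of dopamine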
Target sequence (P14416 whole entry, looked up): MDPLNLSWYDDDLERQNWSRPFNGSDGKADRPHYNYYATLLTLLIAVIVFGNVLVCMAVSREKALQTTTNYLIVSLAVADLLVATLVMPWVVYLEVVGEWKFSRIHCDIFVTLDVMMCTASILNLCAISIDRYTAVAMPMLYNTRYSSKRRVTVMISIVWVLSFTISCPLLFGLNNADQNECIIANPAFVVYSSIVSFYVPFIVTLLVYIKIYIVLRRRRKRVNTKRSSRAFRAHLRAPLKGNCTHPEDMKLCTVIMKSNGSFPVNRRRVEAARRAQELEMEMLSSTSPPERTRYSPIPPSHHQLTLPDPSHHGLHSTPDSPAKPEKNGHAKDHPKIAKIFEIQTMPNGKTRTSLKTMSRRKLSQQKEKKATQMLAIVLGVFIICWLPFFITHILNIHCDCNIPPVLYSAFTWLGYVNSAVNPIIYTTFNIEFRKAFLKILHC
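PathHunter D2 cells, attached overnight at 37 deg C, received compound in DMSO plus dopamine at EC20 (50 nM final) for 90 min at 37 deg C. Beta-arrestin recruitment was read as luminescence after 1 h with detection reagent at ambient temperature.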
Sfp inh – qHTS Assay for Inhibitors of Bacillus subtilis Sfp phosphopantetheinyl transferase (PPTase); Biochemical Sfp PPTase activity, qHTS; Potency, µM, for inactives: max response, negative = inhibition, actives largely listed as inhibitors; 310,000 tested, 3.5% active; active = well fitted inhibition curve with a large enough effect; inconclusive = small, poorly fitted or top-dose-only effect, or another doubt; inactive = no such curve, though single readings can be large or run the other way;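 also: the enzyme is Sfp with the accession as filed and its product quenches rhodamine fluorescence; potency is read from the fitted curve at half-maximal effect; 0% = enzyme reaction without inhibitor and -100% = no enzyme wells; top concentration of the series not given in the record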
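Sfp 15 nM + cpd, 15 min RT; start w/ rhodamine-CoA 5 uM, BHQ-2-YbbR 12.5 uM (final); 50 mM Hepes pH 7.6, 10 mM MgCl2, 0.01% NP-40, 0.01% BSA; read 525/598 nm at 0 and 30 min.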
gsp antag – qHTS for Antagonists of gsp, the Etiologic Mutation Responsible for Fibrous Dysplasia/McCune-Albright Syndrome: qHTS. gsp-mutant cells, cAMP HTRF, 30 min; control for the full effect not named in the record. Potency, µM (series often up to 76.9 µM), inactives show at the highest dose activity change, negative = inhibition, actives largely listed as inhibitors. 340,000 tested, 0.4% active. AID 624288, 2012; active = falling curve of any shape with a large fitted effect; inconclusive = falling curve, mostly with a smaller effect; inactive = flat or rising curve; cell line not stated here;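 also: intracellular cAMP measured with PDE inhibitor Ro 20-1724 present during compound exposure; potency is read from the fitted curve at half-maximal effect; % is scaled to controls: 0 for no effect and ±100 for the full control effect; nearly all actives have a fitted effect of over 65% in size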
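HTRF cAMP measurement after 30 min RT detection following 30 min, 37C compound treatment alongside […] (added as 300 uM solution) in G418-selected cells seeded at 2000/well and grown 16–24 h.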
An asterisk follows results filed as active; ? = inconclusive; nt = no result given; & = joins results of further samples; [ ] = dose if it differs, or a comment.

no.	SMILES	ClpP mod	Menin MLL FP FL	TRPV1 potentiator	gsp ag	D2 potentiator	Sfp inh	gsp antag
1	Cc1ccc(N2C(=O)CC(N3CCc4ccccc43)C2=O)cc1Cl (stereo unspecified)	1.8%	-0.6	8	-8%[15.4 µM]	-7	-2%	18%
2	Cc1ccc(NC(=O)C2CCCN(c3ncccn3)C2)cc1C (stereo unspecified)	nt	3.0	-3	1%	-2	14%	2%
3	Nc1nnc(CSCc2ccc(F)cc2)s1	-0.9%	4.7	-4	6%	0	?	8%
4	Cc1nn2c(NCCCN(C)C)c3c(nc2c1-c1ccccc1)CCC3	-0.4%	2.7	-2	-49%[inhibitor]	-35	-19%	-10%
5	CCOC(=O)C1=C(N)N2C(=O)C(C)SC2=C(C(=O)OCC)C1c1ccccc1 (stereo unspecified)	1.2%	43[activator]	-13	-61%[inhibitor]	-14	8%	-4%
6	C[C@H](NC(=O)c1ccccc1Cl)C(=O)OCC(=O)NNC(=O)c1cccs1	-1.8%	nt	10	?	-35	nt	3%
7	Cc1cccc(C(=O)Nc2nnc(COc3ccccc3)s2)c1	0.9%	3.7	-12	0%	-8	13%	3%
8	Cc1ccc2[nH]c(=O)c(CNC(C)(C)C)cc2c1	14µM*	-5.4	-8	?	-17	5.6µM*	15%
9	O=C(NC(C(=O)N1CCCC1C(=O)O)=C1CCCCC1)c1ccccc1 (stereo unspecified)	?	-0.5	2	-2%	9	18%	4%
10	CCCCNCC#CCOc1cc(C)ccc1C(C)C	0.6%	3.3	?	-1%	9	?	11%
11	CC1=C(C(=O)Nc2ccccc2C)C(c2cccs2)NC(=S)N1 (stereo unspecified)	-3.1%	5.9	3	-17%	14	4%	1%
12	Cc1[nH]c(=O)cc2ccccc12	22µM*	4.5	-6	17%	-22	10%	8%
13	CCc1ccccc1NC1=NCC(=O)N1Cc1ccccc1	0.7%	1.6	-8	15%	-4	3%	-9%
14	CN(C)c1oc(/C=C/c2cccs2)nc1S(=O)(=O)c1ccccc1	nt	8.6	5	-13%[15.4 µM]	-10	6%	-30%
15	O=C(NCCOc1ccc(F)cc1)c1ccccc1SCc1ccccc1	nt	-0.1	-10	12%[15.4 µM]	5	6%	?
16	COc1ccc(-c2noc(C(C)NC(=O)c3ccco3)n2)cc1OC (stereo unspecified)	nt	1.3	-10	2%	-1	24%	9%
17	CCNCc1ccccc1OCc1ccccc1	-2.0%	-2.7	16	35%	-10	22%	14%
18	CCOC(=O)C1CCCN(Cc2nc(Cc3ccccc3Cl)no2)C1 (stereo unspecified)	-0.1%	0.2	-8	-20%	-1	5%	14%
19	COC(=O)CCCC1=CC2=C(c3ccccc3)C(=O)C(C)(OC(=O)C3CCCC3)C(=O)C2=CN1CC1CC1 (stereo unspecified)	0.7%	-8.0[11.7 µM]	-31	-21%	4	?	-1%
20	COc1ccccc1N1CCN(C(=O)C2CCN(S(=O)(=O)c3ccccc3)CC2)CC1	0.0%	2.5	-1	4%	-5	2%	-15%
21	C=CCN1C(=O)C(Cc2ccc(F)cc2)S/C1=N/N=C/c1ccco1 (stereo unspecified)	-1.6%	0.6	-2	0%	19	5%	13%
22	COc1ccc(OC)c(/C=C/C(=O)OCC(=O)Nc2cccc(C(C)=O)c2)c1	-22%	1.0	7	24%	-19	6%	-7%
23	CC(=O)N1CCN(c2ccc(NC(=O)c3ccc(OCc4ccccc4)cc3)cc2)CC1	-29%	-0.1	-3	5%	-3	-9%	19%
24	O=C(COC(=O)c1cccs1)NCCN1C(=O)CSC1=O	-2.8%	0.8	?	8%	-12	6%	10%
25	Cc1ccccc1-n1c(SCC(=O)NC(N)=O)nc2sc(-c3ccccc3)cc2c1=O	-14%	-0.9	4	?	-2	?	-8%
26	COC(=O)C1CN(C(=O)C(C)Oc2ccccc2Cl)c2ccccc2O1 (stereo unspecified)	nt	-1.8	9	2%	-12	6%	1%
27	Cc1ccc(NC(=O)C(c2ccccc2)N(C)C)cc1Cl (stereo unspecified)	0.0%	-0.9	-16	-24%	-21	-20%	-10%
28	NC(=O)CC(NC(=O)Cc1ccc(Cl)cc1)c1ccc(NCCc2ccccc2F)c([N+](=O)[O-])c1 (stereo unspecified)	0.4%	0.0	2	-16%	-9	-7%	-3%
29	COC(=O)C1=C(N)OC2=C(C(=O)CCC2)C1c1ccc2c(c1)OCO2 (stereo unspecified)	0.6%	-3.8	0	-22%	1	20%	-2%
30	N#Cc1c2n(c3c(=O)n(Cc4ccc(Cl)cc4)cnc13)CCCCC2	-4.5%	3.9	9	?	10	-6%	-4%
31	Cn1c(SCC(=O)N2CCCC2)nc2cccnc21	nt	-4.2	8	5%[15.4 µM]	-1	13%	-10%
32	COc1cc(C)c(NC(=S)Nc2ccc(C)c(Cl)c2)cc1OC	1.1%	2.9	16	-11%	-34	-44%	13%
33	CCCN1CCCc2cc(CN(CCCN3CCOCC3)C(=O)Nc3ccc(OCC)cc3)ccc21	-5.8%&-4.9%	6.6	2	-7%	-5	?	-1%
34	COC(=O)c1ccc(-c2ccc(C(c3c(C)[nH][nH]c3=O)c3c(C)[nH][nH]c3=O)o2)cc1	nt	1.1	15	-48%[inhibitor]	-6	50µM*	-5%
35	O=C(Nc1ccc(Cc2nc3ccccc3s2)cc1)c1ccncc1	nt	-0.3	-8	-3%	7	2%	-7%
36	C/C(=N\NS(=O)(=O)c1ccc(Br)cc1)c1ccc(-n2ccnc2)cc1	1.8%	nt	?	-31%[inhibitor]	0	nt	-17%
37	COc1ccccc1Nc1ccc2c(O)cc(S(=O)(=O)O)cc2c1	nt	nt	nt	?	16	nt	4%
38	O=[N+]([O-])c1ccccc1S(=O)(=O)N1CCN(c2ccccc2)CC1	-1.5%	0.7	-1	-26%	-2	-10%	-7%
39	CC(Cl)C(=O)c1c[nH]c2ccccc12 (stereo unspecified)	nt	-4.3	4	-5%[15.4 µM]	-7	-2%	1%
40	CCOc1cc(C(c2c(C)[nH][nH]c2=O)c2c(C)[nH][nH]c2=O)cc(Br)c1OC	-3.9%	nt	6	-1%[15.4 µM]	2	11%	2%
41	O=C(Cn1[nH]c(=O)c2ccccc2c1=O)Nc1ccc2c(c1)CCC2	-1.9%	1.3	-2	0%	-20	11%	6%
42	O=C(Nc1ccccc1)Nc1ccc2c(c1)CCC2	-1.6%	4.3	-4	2%	-16	7%	-8%
43	CC1C(=O)NN=C1C(=O)N/N=C\c1ccc(O)cc1O (stereo unspecified)	-8.0%	19	2	-2%	-25	26%	-9%
44	COc1ccc(C(=O)NCC(=O)OCC(=O)NC2CCCC2)cc1	nt	-3.1	-1	19%	-7	17%	1%
45	CN(c1ccc(OCC(=O)Nc2ccc(S(N)(=O)=O)cc2)cc1)S(=O)(=O)c1ccc(F)cc1	-1.5%	nt	nt	-30%[inhibitor]	13	nt	-17%
46	CCn1c(C(O)c2cc(OC)ccc2OC)nc2ccccc21 (stereo unspecified)	0.6%	-1.2	6	9%[15.4 µM]	-1	0%	-6%
47	CC1=CCC2C(=O)N(c3ccc(S(N)(=O)=O)cc3)C(=O)C2C1 (stereo unspecified)	nt	4.8	-1	-1%[15.4 µM]	-2	12%	0%
48	O=C(CN1CCN(Cc2cccc(Cl)c2)C1=O)NCc1ccccn1	-1.5%	0.6	-1	?	-2	-4%	7%
49	c1coc(CNc2c3c(nc4ncnn24)CCCC3)c1	-2.5%	5.5	-15	1%	10	-8%	8%
50	NC(=O)C1(NC(=O)[C@@H]2CC3(CC(c4cccc(NC(=O)[C@@H]5CCC(=O)N5)c4)=NO3)CN2C(=O)c2cnccn2)CC1 (stereo partly specified)	-0.4%	2.9	16	nt	-39	-2%	7%
51	CCOC(=O)C1(CCCc2ccccc2)CCN(C(=O)CCN2CCCCC2=O)CC1	nt	-6.3	-5	-32%[inhibitor]	-5	21%	-8%
52	Cn1c(=O)c2[nH]c(N=Nc3ccc(N)cc3N)nc2n(C)c1=O	-13%	2.1	-11	?	-15	?	-11%
53	CN(c1ccc(OCC(=O)OCC(=O)Nc2ccccc2)cc1)S(=O)(=O)c1ccc(F)cc1	0.5%	4.9	5	-11%[15.4 µM]	-2	31%[activator]	-13%
54	CCCC(NC(=O)CNC(=O)C(C)(C)C)C(=O)O (stereo unspecified)	-0.5%	0.1	8	-39%[inhibitor]	-3	2%	9%
55	Cc1ccc2c(c1)C(c1ccccc1)N(C(=O)c1ccc(F)cc1)CC(=O)N2 (stereo unspecified)	nt	4.9	-5	-10%	5	-6%	1%
56	COc1ccccc1/C=C/C=N/Nc1cccc(C(=O)O)c1	nt	1.3	17	3%[15.4 µM]	10	-8%	-17%
57	O=C(CN=C1NS(=O)(=O)c2ccccc21)OCC(=O)c1cc(F)ccc1F	0.2%	-1.3	3	-27%	-17	16%	4%
58	Cc1ccc(/C=C2\SC(=S)N(CCCC(=O)Nc3nccs3)C2=O)cc1	-1.1%	1.0	6	-2%	-14	?	11%
59	COCCn1c(SCC(=O)Nc2sccc2C(N)=O)nnc1-c1ccncc1	0.6%	2.9	4	5%[15.4 µM]	2	17%	5%
60	C=CCNC(=S)N/N=C/c1ccc(C)c([N+](=O)[O-])c1	-1.8%	-4.4	6	-36%	5	0%	11%
61	O=C(O)C1CCN(c2ccc([N+](=O)[O-])cc2[N+](=O)[O-])CC1	nt	1.0	7	-12%[15.4 µM]	-1	14%	0%
62	Clc1ccc(Cl)c(OCCCCN2CCCCC2)c1	-0.5%	-1.5	0	-11%	-15	-1%	7%
